Screening results: PubChem, Broad Institute
Vaccinia stage = blocks a specific stage of Vaccinia orthopoxvirus infection; Vaccinia-infected cells, mCherry/Venus stage reporter fluorescence; stronger effect = lower value; some inactives read as strong as hits; activity change (mCherry), % (concentration not given with the values); actives 0.01% (n = 89,000);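 active = mCherry past -33% and 40 or more points under the early reporter, replicates agreeing; inconclusive = past -33% without that gap or agreement; tested in A549 cells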;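 note: scaled between vehicle wells and reference inhibitor wells; 23 nL library stock went into each well; one replicate is shown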
Vaccinia stage Venus = recorded beside Vaccinia stage, whose call it bears; activity change (Venus), %; measured here: Venus reporter, other viral stage;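 negative = less Venus signal; first of two replicates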
Active calls of the source: *; ? = inconclusive; . = not tested or not shown.

Each structure is followed by: Vaccinia stage, Vaccinia stage Venus
- CNC[C@H]1Oc2c(NC(=O)c3cc(C)nn3C)cccc2C(=O)N([C@@H](C)CO)C[C@H]1C
  7.1, -1.6
- COC(=O)[C@H]1[C@H](CO)[C@H]2Cn3c(cccc3=O)[C@@H]1N2C(=O)C1CCC1
  17.1, 15.8
- CCC(=O)N1CC2(C1)[C@@H](c1ccc(-c3ccc(F)cc3)cc1)[C@@H](CO)N2C(=O)CC
  -0.4, -1.7
- CCCC#Cc1ccc([C@H]2[C@@H](CO)N3C(=O)CN(S(=O)(=O)c4ccccc4C)C[C@H]23)cc1
  ?, .
- Cc1noc(C)c1NC(=O)Nc1cccc2c1O[C@H](CN(C)CC1CCCCC1)[C@@H](C)CN([C@H](C)CO)C2=O
  -0.4, 8.4
- C[C@H](CO)N1C[C@H](C)[C@@H](CN(C)S(C)(=O)=O)Oc2c(NC(=O)c3ccncc3)cccc2C1=O
  17.7, 6.2
- C[C@@H](NC(=O)C[C@@H]1C=C[C@H](NC(=O)C2CCOCC2)[C@H](CO)O1)c1ccccc1
  -4.4, -0.8
- COc1ccc(S(=O)(=O)Nc2ccc3c(c2)C(=O)N([C@H](C)CO)C[C@H](C)[C@H](CN(C)S(=O)(=O)c2ccc(F)cc2)O3)cc1
  3.2, 1.1
- COc1ccc(CN(C)C[C@@H]2OCCCC[C@@H](C)Oc3ccc(NC(=O)NC4CCCCC4)cc3C(=O)N([C@H](C)CO)C[C@@H]2C)cc1
  -18.7, -13.6
- Cc1ccccc1S(=O)(=O)N1C[C@H](O)COC[C@@H]2O[C@@H](CC(=O)NCc3ccccc3Cl)CC[C@H]21
  -7.5, -4.6
- C[C@H](CO)N1C[C@H](C)[C@@H](CN(C)Cc2ccc(F)cc2)Oc2cc(Br)ccc2S1(=O)=O
  -24.1, -26.9
- C[C@@H]1CN([C@@H](C)CO)S(=O)(=O)c2ccc(-c3ccc(C(=O)N(C)C)cc3)cc2O[C@H]1CN(C)C(=O)Nc1ccccc1F
  3.5, 2.9
- COc1ccccc1S(=O)(=O)N[C@H]1CC[C@H](CC(=O)N2CCCCC2)O[C@H]1CO
  9.1, 12.9
- O=C(O)[C@@H]1[C@@H](CO)[C@@H]2Cn3c(ccc(C4=CCCC4)c3=O)[C@H]1N2C(=O)Cc1ccccn1
  17.3, 2.2
- CC(=O)NC[C@@H]1[C@@H](c2ccc(C3=CCCC3)cc2)[C@@H](CO)N1C(=O)C1CC1
  13.5, 10.4
- CC(C)NC(=O)N1[C@H](CO)[C@@H](c2ccccc2)C12CN(C(=O)CN(C)C)C2
  4.2, 4.7
- C[C@H](CO)N1C[C@H](C)[C@H](CN(C)S(=O)(=O)c2cccc(F)c2)Oc2ncc(C#CC3(O)CCCC3)cc2C1=O
  26.9, 18.5
- CO[C@@H]1CN(C)C(=O)c2cc(NC(C)=O)ccc2OC[C@H](C)N(S(=O)(=O)c2cn(C)cn2)C[C@H]1C
  8.3, 1.2
- COc1ccc(S(=O)(=O)Nc2ccc3c(c2)CC(=O)N([C@@H](C)CO)C[C@@H](C)[C@@H](CN(C)C)O3)cc1
  18.2, 17.4
- C[C@@H]1CN([C@H](C)CO)C(=O)c2cc(NC(=O)c3ccccc3)ccc2O[C@@H](C)CCCCO[C@@H]1CN(C)S(=O)(=O)c1cn(C)cn1
  11.7, 2.3
- COc1ccc2c3c(n(C)c2c1)[C@@H](CO)N(CC1CC1)CC31CN(C(C)=O)C1
  6.8, 2.2
- C[C@H]1CN([C@@H](C)CO)C(=O)c2cc(NC(=O)Cn3cnnn3)ccc2O[C@H]1CN(C)S(C)(=O)=O
  14.2, 4.2
- O=C(c1cccc(F)c1)N1CC(=O)N2[C@H](CO)[C@H](c3ccc(C#Cc4ccc(F)cc4)cc3)[C@@H]2C1
  ?, .
- COc1cccc(NC(=O)C[C@H]2CC[C@H]3[C@@H](COc4ccc(NC(=O)C5CCCCC5)cc4C(=O)N3C)O2)c1
  -22.7, -12.7
- CN(C)C(=O)C[C@H]1CC[C@H](NC(=O)c2ccc(F)cc2)[C@H](CO)O1
  -6.2, -2.7
- CC(=O)N1CCCCN2[C@@H](CO)[C@@H](c3ccc(Br)cc3)[C@@H]2C1
  11.5, 3.3
- COc1ccc(-c2cnc3c(c2)C(=O)N([C@H](C)CO)C[C@H](C)[C@@H](CN(C)Cc2ccccn2)O3)cc1
  3.0, 1.7
- COc1ccc(CN(C)C[C@@H]2OCCCC[C@H](C)Oc3ccc(NS(=O)(=O)c4cn(C)cn4)cc3C(=O)N([C@@H](C)CO)C[C@H]2C)cc1
  -1.4, 2.8
- COc1ccccc1NC(=O)N1C[C@@H]2[C@H](c3ccccc31)[C@H](CO)N2C(=O)C1CC1
  -16.2, 5.1
- O=S(=O)(c1ccc(F)cc1)N1CCCCN2[C@H](CO)[C@H](c3ccc(-c4cncnc4)cc3)[C@@H]2C1
  -13.1, -6.5

Four entries picked at random from the list so far:
Each structure is followed by: Vaccinia stage, Vaccinia stage Venus
- C[C@H](CO)N1C[C@H](C)[C@H](CN(C)S(=O)(=O)c2cccc(F)c2)Oc2ncc(C#CC3(O)CCCC3)cc2C1=O
  26.9, 18.5
- CC(=O)NC[C@@H]1[C@@H](c2ccc(C3=CCCC3)cc2)[C@@H](CO)N1C(=O)C1CC1
  13.5, 10.4
- Cc1ccccc1S(=O)(=O)N1C[C@H](O)COC[C@@H]2O[C@@H](CC(=O)NCc3ccccc3Cl)CC[C@H]21
  -7.5, -4.6
- COc1ccc(CN(C)C[C@@H]2OCCCC[C@@H](C)Oc3ccc(NC(=O)NC4CCCCC4)cc3C(=O)N([C@H](C)CO)C[C@@H]2C)cc1
  -18.7, -13.6

Next records follow:
Each structure is followed by: Vaccinia stage, Vaccinia stage Venus
- C[C@@H]1CN([C@H](C)CO)C(=O)c2ccccc2-c2ccccc2CO[C@@H]1CN(C)Cc1ccc(C(=O)O)cc1
  17.3, 17.4
- CC(C)NC(=O)Nc1ccc2c(c1)CC(=O)N([C@@H](C)CO)C[C@H](C)[C@@H](CN(C)C(=O)NC(C)C)O2
  9.8, 7.4
- CCNC(=O)Nc1ccc2c(c1)C(=O)N(C)[C@H]1CC[C@@H](CC(=O)NC3CCCCC3)O[C@@H]1CO2
  0.5, -3.1
- COc1ccc2c3c([nH]c2c1)[C@H](CO)N(Cc1ccc2c(c1)OCO2)CC31CN(C(=O)Nc2c(C)noc2C)C1
  -2.0, 3.4
- C[C@@H]1CN([C@H](C)CO)C(=O)Cc2cc(NC(=O)Nc3ccc(C(F)(F)F)cc3)ccc2O[C@H]1CN(C)C(=O)NC1CCCCC1
  -6.3, 1.1
- C[C@H](CO)N1C[C@H](C)[C@@H](CN(C)C(=O)Nc2ccc(F)cc2)OCCCC[C@H](C)Oc2ccc(NC(=O)Nc3ccc(C(F)(F)F)cc3)cc2C1=O
  -7.4, -2.9
- CCS(=O)(=O)N[C@H]1CC[C@@H](CC(=O)NCc2ccc(Cl)cc2)O[C@@H]1CO
  -0.7, 4.9
- C[C@@H]1CN([C@H](C)CO)C(=O)CCCn2nncc2CO[C@@H]1CN(C)C(=O)Nc1ccc(N2CCN(C)CC2)cc1
  4.6, 7.1
- C[C@@H]1CN([C@H](C)CO)C(=O)c2cc(NC(=O)C3CCCCC3)ccc2O[C@H]1CN(C)Cc1ccc2c(c1)OCO2
  -17.7, -11.4
- CC=Cc1ccc2n(c1=O)C[C@H]1[C@H](CO)[C@@H](C(=O)NCc3ccccc3Cl)N(S(C)(=O)=O)[C@@H]21 (mixture of isomers)
  22.2, 7.4
- C[C@@H]1CCCCO[C@H](CN(C)Cc2ccccc2)[C@@H](C)CN([C@@H](C)CO)C(=O)c2cc(NC(=O)c3ccncc3)ccc2O1
  0.6, -2.4
- CN1[C@@H]2c3ccc(-c4cccc(F)c4)c(=O)n3C[C@@H]2[C@@H](CO)[C@@H]1C(=O)NC1CCCCC1
  6.6, 1.8
- COc1ccc(-c2ccc3c(c2)O[C@@H](CN(C)CC2CCOCC2)[C@@H](C)CN([C@@H](C)CO)S3(=O)=O)cc1
  -11.4, -18.6
- CCCNC(=O)[C@H]1[C@H](CO)[C@H]2Cn3c(ccc(C4=CCCC4)c3=O)[C@H]2N1C(=O)CC
  -3.1, 5.4
- CO[C@H]1CN(C)C(=O)c2cc(NC(=O)c3cc(C)on3)ccc2OC[C@@H](C)N(C(=O)C2CC2)C[C@@H]1C
  -2.8, 2.4
- Cc1ccccc1S(=O)(=O)N1CCCCN2[C@H](CO)[C@H](c3ccc(-c4cccnc4)cc3)[C@@H]2C1
  ?, .
- C[C@@H]1CN([C@H](C)CO)C(=O)c2cc(NS(=O)(=O)c3ccc(F)cc3)ccc2O[C@H]1CN(C)Cc1ccc(Cl)c(Cl)c1
  -19.4, -5.1
- C[C@@H]1CN([C@H](C)CO)S(=O)(=O)c2ccc(C#Cc3ccncc3)cc2O[C@H]1CN(C)C
  -5.2, -8.8
- COc1ccccc1S(=O)(=O)N[C@H]1CC[C@H](CCNC(=O)C2CC2)O[C@@H]1CO
  -1.3, 4.6
- O=C(Nc1cc(F)ccc1F)N1C[C@H]2[C@@H](c3ccccc31)[C@H](CO)N2Cc1ccncc1
  15.4, 19.1
- O=C(c1ccccc1F)N1CC(=O)N2[C@H](CO)[C@H](c3ccc(-c4cccnc4)cc3)[C@H]2C1
  22.3, 7.4
- N#C[C@@H]1[C@H](c2ccccc2-c2ccccc2)[C@@H](CO)N1C(=O)Cc1ccncc1
  -1.6, 6.0
- COC(=O)C[C@H]1C[C@@H]2c3cc(NS(=O)(=O)c4ccc(F)cc4)ccc3O[C@@H]2[C@@H](CO)O1
  6.9, 6.0
- C[C@@H]1CN([C@@H](C)CO)C(=O)c2cccc(NS(=O)(=O)c3ccc(Cl)cc3)c2O[C@@H]1CN(C)Cc1ccc2c(c1)OCO2
  34.4, 30.7
- C[C@@H]1CN([C@@H](C)CO)C(=O)c2cc(NC(=O)CCN3CCOCC3)ccc2O[C@H]1CN(C)C(=O)Nc1ccc(F)cc1
  9.6, 5.9
- CO[C@H](CN(C)C(=O)c1ccccc1F)[C@@H](C)CN([C@H](C)CO)S(=O)(=O)c1ccc(F)cc1
  3.2, -0.5
- COC(=O)[C@H]1[C@H](CO)[C@H]2Cn3c(ccc(-c4ccccc4F)c3=O)[C@H]2N1C(=O)CC1CC1
  9.8, 7.8
- O=C(Nc1ccccc1)N1CC(=O)N2[C@H](CO)[C@H](c3ccc(C#Cc4cccnc4)cc3)[C@H]2C1
  -15.3, -19.6
- CCC(=O)Nc1ccc2c(c1)C(=O)N(C)[C@@H]1CC[C@@H](CC(=O)NC3CCCC3)O[C@@H]1CO2
  5.3, 2.6
- C[C@@H]1CN([C@H](C)CO)C(=O)CCCn2nncc2CO[C@H]1CN(C)C(=O)Oc1ccc2ccccc2c1
  4.3, 4.1
- CC(C)CC#Cc1ccc([C@@H]2[C@@H](CO)N3CCCCN(C(=O)NC4CCCC4)C[C@H]23)cc1
  ?, .
- CC(C)NC(=O)N1CC2(C1)[C@@H](c1ccccc1)[C@H](CO)N2C(=O)C1CCCCC1
  15.5, 6.3
- C[C@H]1CN([C@@H](C)CO)C(=O)c2cccc(NC(=O)C3CC3)c2O[C@@H]1CN(C)C(=O)Nc1cccc2ccccc12
  33.6, 27.1
- CN1CCN(C(=O)C[C@@H]2C[C@@H]3c4cc(NC(=O)C5CCOCC5)ccc4O[C@@H]3[C@@H](CO)O2)CC1
  12.8, 8.3
- N#C[C@@H]1[C@@H](c2ccc(-c3ccccc3F)cc2)[C@H](CO)N1C(=O)C1CCC1
  -30.1, -23.0
- COc1cccc(-c2cnc3c(c2)C(=O)N([C@@H](C)CO)C[C@@H](C)[C@H](CN(C)C(C)=O)O3)c1
  5.5, 1.2
- COc1ccc(S(=O)(=O)Nc2ccc3c(c2)C(=O)N([C@H](C)CO)C[C@H](C)[C@H](CN(C)C)O3)cc1
  9.8, 11.4
- C[C@H](CO)N1C[C@H](C)[C@@H](CN(C)Cc2ccc(C(=O)O)cc2)Oc2c(NS(=O)(=O)c3cccs3)cccc2C1=O
  4.6, -5.4
- COCC(=O)Nc1ccc2c(c1)C(=O)N(C)[C@@H]1CC[C@H](CC(=O)NCc3ccccc3)O[C@@H]1CO2
  7.0, 11.0
- CC(C)NC(=O)N(C)C[C@@H]1Oc2cc(-c3ccncc3)ccc2S(=O)(=O)N([C@H](C)CO)C[C@H]1C
  34.2, 17.8
- Cc1ccc(S(=O)(=O)Nc2ccc3c(c2)C(=O)N([C@H](C)CO)C[C@@H](C)[C@@H](CN(C)S(=O)(=O)c2ccc(C)cc2)OCCCC[C@@H](C)O3)cc1
  -34.4, -17.1
- Cc1ccccc1-c1ccc2c(c1)O[C@@H](CN(C)C(=O)Nc1ccccc1)[C@H](C)CN([C@@H](C)CO)S2(=O)=O
  -20.3, -8.0
- CO[C@H]1CN(C)C(=O)c2cc(NS(=O)(=O)c3ccccc3F)ccc2OC[C@H](C)NC[C@H]1C
  10.0, 22.5
- C#Cc1ccc([C@H]2C=C(C(=O)N3CCN(Cc4ccc5c(c4)OCO5)CC3)O[C@@H](OCC)[C@@H]2CCCO)cc1
  ?, .
- CN(C)CC(=O)N[C@H]1CC[C@@H](CCn2cc(CN(C)C)nn2)O[C@H]1CO
  -2.7, -9.8
- CCC(=O)N(C)C[C@H]1Oc2cc(C#Cc3ccccn3)ccc2S(=O)(=O)N([C@@H](C)CO)C[C@H]1C
  8.3, 6.6
- O=C(c1cccnc1)N1C[C@H]2[C@@H](c3ccccc31)[C@@H](CO)N2Cc1ccc2c(c1)OCO2
  1.9, 3.4
- COc1cccc(S(=O)(=O)N2C[C@H](O)COC[C@H]3O[C@H](CC(=O)NCCCN4CCOCC4)CC[C@@H]32)c1
  10.1, 16.5
- COCC#Cc1ccc([C@H]2[C@@H](CO)N3CCCCN(C(=O)CN(C)C)C[C@@H]23)cc1
  16.1, 6.9
- CCC(=O)Nc1ccc2c(c1)C(=O)N(C)C[C@H](OC)[C@H](C)CN(Cc1ccccc1C(=O)O)[C@H](C)CO2
  0.7, 4.2
- C[C@@H](O)C#Cc1ccc([C@H]2[C@@H](CO)N3CCCCN(C(=O)c4cccc(F)c4)C[C@H]23)cc1
  10.0, 1.7

Only part of the results is shown, so the mix of outcomes need not match the whole.
